Tgondii IFNg: T. gondii growth inhibition with IFN-gamma, primary screen, cell-based; actives 3.8% (n = 69,000); Toxoplasma gondii growth in IFN-gamma-treated host cells; stronger effect = lower value; reference of the scale not given here; activity change, negative = inhibition, %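 (about 20 µM by stock and volumes)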;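 active means below -70%; inconclusive means fit judged invalid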;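 further: host cells are HeLa cells infected with Toxoplasma gondii; parasite growth read as luciferase light; one replicate is shown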
Active calls of the source: *; i = inactive; ? = inconclusive; & = joins results of further samples.

smiles	Tgondii IFNg
COc1ccc(-c2cc(CNC(=O)C3CC=CCC3)no2)cc1 (stereo not given)	4.6
O=C(O)c1cc(-c2ccc3c(c2)OCO3)n[nH]1	5.1
CN1C(=O)CCCC12CCCN(C(=O)CCc1ccccc1)C2 (stereo not given)	13.6
C=CCOCc1ncn2c1CN(Cc1nccs1)CCC2	i
Cc1noc(C)c1CCC(=O)N1CCC(c2nc(C3CCC3)n3c(C)csc23)C1 (stereo not given)	9.3
COc1ccc2c3c([nH]c2c1)[C@H](CO)N(C(=O)C1CCOCC1)CC31CCN(Cc2nccs2)CC1	125.8
O=S(=O)(Cc1cccc(C(F)(F)F)c1)Cc1ncc(-c2ccc(Cl)cc2)s1	-31.9
CC[C@H]1OC[C@@H]2CN(C(=O)c3ccnnc3)CC[C@H]21	3.6
C=CCOC1C2CCC1N(S(=O)(=O)c1ccccc1)C2 (stereo not given)	-4.2
Cc1ccc(N2Cc3ncn(C)c3C(C(=O)O)C2)nn1 (stereo not given)	16.9
CS(=O)(=O)CC(=O)N1CCC2(CCOCC2COCC2CC2)CC1 (stereo not given)	-2.3
O=C(O)C1CN(c2ncccn2)CCN1C(=O)CCc1cccnc1 (stereo not given)	24.1
Cc1ccc(C(=O)CC(C(=O)O)n2cncn2)cc1 (stereo not given)	18.0
CCN(Cc1cc(Cl)ccc1OC)C(=O)[C@@H](N)Cc1ccccc1	-12.5
Cc1nn(C)c(C)c1CCC(=O)N(C)C(C)c1nccs1 (stereo not given)	51.5
Cc1cnc(C(=O)N2CC(c3ccncc3)C2)cn1	4.7
CCc1nc(C)c(C(=O)N2CCn3cccc3C2c2ccccn2)o1 (stereo not given)	0.2
CN(C)C(=O)c1ccc(-c2ccc(C3[C@H]4CNC[C@@H]3N4S(=O)(=O)c3ccc(Cl)cc3)cc2)cc1 (stereo not given in full)	-2.2
COc1ccc(C#Cc2ccc([C@@H]3[C@@H](CO)N4C(=O)CN(C(=O)NC(C)C)C[C@H]34)cc2)cc1	-6.1
CCn1cc(C(=O)O[C@H]2C[C@@H](c3ccc(OC)cc3)N(C)C2=O)c(C)n1	-0.6
COc1ccccc1-c1noc(-c2c(O)c3cc(C)ccc3[nH]c2=O)n1	-38.9
Cc1cc(NC(=O)NCCNc2ncccc2C(F)(F)F)c(C(F)(F)F)o1	2.3
COCCN1CCC(CN2CCN(c3nccc4ccccc34)CC2)CC1	-11.4
Cc1ccc2c(c1C)-n1cccc1C1(CCN(C(=O)c3ccccc3Cl)CC1)N2	43.7
Cc1nn2c(c1-c1ccccc1)N=C(c1ccco1)CC2c1ccco1 (stereo not given)	26.2

(cont.)
smiles	Tgondii IFNg
CN(Cc1nc2ccc(F)cc2[nH]1)C(=O)CCC1CCOC1=O (stereo not given)	-48.5
O=C(NCc1ccco1)C(Cc1ccccc1)N1C(=O)c2ccccc2C1=O (stereo not given)	7.8
COc1cccc(C(=O)N2CCc3nc(N4CCCC4)nc(NC(C)C)c3C2)c1	-109.9*
COCCn1c(C(=O)N(C)C)cc2c1c1ccccc1n2C	58.5
CC(C)(NC(=O)CCn1ccc(=O)[nH]c1=O)c1cccc2ccccc12	-0.6
Cc1oc2ccccc2c1CC(=O)Nc1ccc(OC(F)(F)F)cc1	-56.1
O=C(Nc1cccc(F)c1)C1CCN(S(=O)(=O)c2ccc3[nH]c(=O)ccc3c2)CC1	71.9
COc1ccc(-n2ncc(C(=O)C3CCN(C(=O)C4CCN(C(C)=O)CC4)C3)c2N)cc1 (stereo not given)	-2.2
C[C@H](CO)N1C[C@H](C)[C@@H](CN(C)CC2CC2)OCCCC[C@H](C)Oc2ccc(NC(=O)c3ccccc3)cc2C1=O	92.3
O=C(CCn1ccccc1=O)N1CCC2(CCCO2)CC1	-59.6
Cc1csc(C(Cc2ccsc2)NC(=O)c2cc3c([nH]c2=O)CCC3)n1 (stereo not given)	-19.4
C[C@@H]1CN([C@@H](C)CO)C(=O)Cc2cc(NC(=O)Cn3cnnn3)ccc2O[C@H]1CN(C)S(=O)(=O)c1ccc(Cl)cc1	14.6
CCC1CCC(C(=O)NCc2nc(Cc3ccccc3)n[nH]2)CC1 (stereo not given)	-4.6
N#Cc1cccc(-c2ccc([C@H]3[C@@H](CO)N4CCCCN(Cc5ccccc5F)C[C@@H]34)cc2)c1	9.9
Cc1ccc(S(=O)(=O)N2CCCC(c3nc(-c4ccc(C(C)C)cc4)no3)C2)cc1 (stereo not given)	57.9
CCn1ccnc1CN(C)c1cc(C2CCNCC2)nc(C)n1	-6.2
Cc1ccc(-c2cc3c(=O)n(Cc4nc(-c5ccccc5)oc4C)ccn3n2)cc1	126.3
O=C(C1Cc2ccccc2O1)N1CCC(n2cc(-c3ccccc3)nn2)CC1 (stereo not given)	-1.2
N#Cc1ccc(-c2ccc(C3[C@@H]4CN(C(=O)c5cccnc5)C[C@H]3N4)cc2)cc1 (stereo not given in full)	12.7&-42.2
CCCN(c1ccc(OCC)cc1)c1nc(C(=O)OCC)nc2ccccc12	-64.1
CCc1cnc(N2[C@H](CO)[C@@H](c3ccc(-c4cccc(F)c4)cc3)[C@@H]2C#N)s1	-4.8
Cc1ccc2c3c(c(SCC(=O)N4CCN(C(=O)c5ccco5)CC4)nc2c1)CCCC3	-30.6
CCc1cccc(C)c1N(C(=O)c1ccco1)C1=NCCC(=O)S1	27.5
COc1ccc(C2c3c(n[nH]c3C)CC(C)(O)C2C(C)=O)cc1OC (stereo not given)	-10.9
COC(=O)CCC(=O)CN	2.3

More results.
smiles	Tgondii IFNg
CN(C(=O)C(C)(C)Oc1cc(C(F)(F)F)n(C)n1)c1ccccc1	4.0
Cc1nccc([C@H]2C[C@H]3CCN(C(=O)c4c(C)noc4C)C[C@@H]3O2)n1	-59.3
COc1ccc(S(=O)(=O)N(C)C[C@@H]2Oc3ccc(NC(=O)Nc4ccc(C(F)(F)F)cc4)cc3C(=O)N([C@H](C)CO)C[C@@H]2C)cc1	-37.4
CCN1CC2(CCN(C(=O)NC(C)C)CC2)C2(CCNC2=O)C1 (stereo not given)	0.4
O=C(O)c1cc(-c2cccc3c2CCNC3)nc2ccccc12	-40.9
CCc1ccccc1NS(=O)(=O)c1cc2c3c(c1)CCN3C(=O)CC2	-52.2
O=C(c1ccccc1F)N1CCN(S(=O)(=O)c2cc3c4c(c2)CCC(=O)N4CCC3)CC1	12.1
COc1ccc(CNC(=O)CCC2N=C3c4ccccc4N=C(SCc4cc(=O)n5cc(Cl)ccc5n4)N3C2=O)cc1 (stereo not given)	-4.0
CC(C)c1nc(N2CCCC3(CC2)CNC(=O)O3)no1 (stereo not given)	-6.8
CSc1ccc(-c2noc(-c3c(O)c4cc(F)ccc4n(C)c3=O)n2)cc1	-4.4
Cc1ccc(N2CCN(C(=O)c3csc(-c4ccc(N5CCCC5)nc4)n3)CC2)cc1	192.5
COc1cccc(OC(C)C(=O)N2CCCC2c2nc(C(C)C)no2)c1 (stereo not given)	7.6
CC(=O)N[C@@H]1Cc2ccccc2[C@H]1NC(=O)c1cn[nH]n1	-3.8
COc1ccccc1-n1cc(C(=O)N2CCC3(CN(C)C(=O)O3)C2)cn1 (stereo not given)	6.1
CCCc1nc(C)c(CNC(=O)CC2COCCN2)s1 (stereo not given)	-6.7
COc1ccc2c3c([nH]c2c1)[C@@H](CO)N(Cc1cc(F)ccc1F)CC31CN(C(=O)C2CCC2)C1	-18.9
CC(C)(C)NCC(O)COc1ccccc1C(=O)CCc1ccccc1 (stereo not given)	-30.2
CC(C)(O)C#Cc1cccc(-c2nc(C(=O)O)cc3c2[C@@H](CCO)N(S(=O)C(C)(C)C)C3)c1 (stereo not given in full)	-43.0
O=C(Cc1ccc(F)cc1)N1CCn2cc(Cn3cncn3)nc2C1	6.4
Cc1cccc(NC(=O)N2CCC(c3nc(C(=O)N(C)C)c(C)o3)CC2)c1C	-13.3
CN(C)CC(=O)N1CCN(c2ccc3ccc(C(=O)NCc4cccs4)cn23)CC1	9.2
Cc1cc(C)cc(NC(=O)Cn2ncc3c(N4CCCC4)ncnc32)c1	-14.0
Cc1ccc2[nH]c(=O)c(-c3nc(-c4ccccc4)no3)c(O)c2c1	2.9
C[C@H]1CCCn2nncc2COCCNC1=O	-33.1
CCN(CC)CCn1ccnc1-c1ccc2onc(C)c2c1	-2.8

More records:
smiles	Tgondii IFNg
CC(C)c1cn(CC[C@H]2CC[C@H](NS(=O)(=O)c3ccc(F)cc3)[C@@H](CO)O2)nn1	-7.9
COCCN(C)C(=O)c1ccc2nnc3ncn(CCOC)c3c2c1	52.5
CN1CCN2C[C@@H](NC(=O)c3cc4ncc(CCO)cn4n3)C[C@H]2C1	-2.9
CCn1c(C2CCCN(C(=O)c3csc(NC)n3)C2)nn(C)c1=O (stereo not given)	68.0
Cc1noc(C)c1S(=O)(=O)Nc1ccc2c(c1)C(=O)N([C@@H](C)CO)C[C@H](C)[C@@H](CN(C)Cc1ccc(C(=O)O)cc1)OCCCC[C@H](C)O2	?
O=C(Nc1ccccc1)C1CCCN1C(=O)Nc1ccccc1 (stereo not given)	-11.9
CN1CC2(CCN(C(=O)CCc3ccc(=O)[nH]n3)C2)OC1=O (stereo not given)	?
COc1cccc(-n2cc(-c3ccc(F)cc3)nc2SCC(C)=O)c1	56.0
O=C(Cn1ncc2c(N3CCCCC3)ncnc21)NCCC1=CCCCC1	42.9
CC1CCCN(c2ccc(C(N)=O)cc2-n2cnnc2)C1 (stereo not given)	1.6
CNC(=O)C[C@H]1CC[C@@H]2[C@@H](COc3ccc(NS(=O)(=O)c4ccc(F)cc4)cc3C(=O)N2C)O1	15.8
Cc1nccc([C@H]2C[C@H]3CCN(S(C)(=O)=O)C[C@@H]3O2)n1	-8.3
C=CCN1C(=O)CC(c2cnn(C)c2)C12CCN(CC(=O)N(C)C)CC2 (stereo not given)	0.5
O=C1NCC2(CCN(C(=O)c3ccc4cccc(Cl)c4n3)CC2)O1	-6.6
O=C(O)c1c2ccccc2nc2ccccc12	-74.7*
COC(=O)[C@H](Cc1cccc(C(=N)N)c1)[C@@H](C)NC(=O)c1ccc(-c2cc[n+]([O-])cc2)cc1	4.0
CN(Cc1cccnc1)C1CCN(S(C)(=O)=O)C(C(=O)O)C1 (stereo not given)	-1.3
CCN1c2cc(C)ccc2-n2cccc2C12CCN(S(=O)(=O)c1ccc(C(C)C)cc1)CC2	-27.6
Cc1cccc(C2CCCN(C(=O)CCc3csc(N)n3)C2)c1 (stereo not given)	-5.5
CCc1ccc(OCC(=O)Nc2ccc(-c3nc(-c4ccccc4)co3)cc2)cc1	245.7
O=S(=O)(c1ccc2ccccc2c1)N1CCC2(CC1)Nc1cc(F)ccc1-n1cccc12	3.2
N#Cc1cc(CN2C[C@@H](C(=O)NCc3ccco3)[C@@H]3OCC[C@H]32)ccc1F	-1.2
CO[C@H]1CC[C@@H]2CCN(C)C(=O)[C@@H](C)CN(C)C(=O)c3cc(C#N)ccc3OC[C@H]1O2	-4.1
O=C(CCc1ccccc1)Nc1cccc2c1CCCC2	-0.9
O=C(C1CCOCC1)N1CC2(C1)[C@H](c1ccccc1)[C@H](CO)N2Cc1ccccc1F	62.7

More structures
smiles	Tgondii IFNg
CC(C)(C)c1ccc(-c2noc(CCOc3ccc(F)cc3)n2)cc1	33.6
C[C@H](CO)N1C[C@H](C)[C@H](CN(C)C(=O)NC2CCCCC2)Oc2ncc(-c3cccc(F)c3)cc2C1=O	?
CC(C)OC(=O)Cc1csc(-c2ccc(Oc3ccc(C(F)(F)F)cn3)cc2)n1	-6.8
O=C(c1cccc2c1OCC2)N1CCCC(CO)(Cc2ccccc2)C1 (stereo not given)	3.5
Cc1cccc(C)c1OCC(=O)N[C@@H](Cc1ccccc1)[C@@H](O)C[C@H](Cc1ccccc1)NC(=O)[C@H](C(C)C)N1CCCNC1=O	-41.3
Cc1ccc2c(c1C)-n1cccc1C1(CCN(C(=O)Cc3ccc(F)cc3)CC1)N2	-29.2
O=C(Nc1csnc1-c1c(Cl)cccc1Cl)NN1CCOCC1	-18.2
Cc1ccccc1-c1ccc2c(-c3ncc(C(=O)NCCN(C)C)s3)noc2c1	-53.8
Cc1cccc(CN(C(=O)CCNS(C)(=O)=O)C(C)C)c1	13.9
CCC1CN(CCNC(=O)c2cccnc2OC)Cc2cc(OC)ccc2O1 (stereo not given)	7.3
CN(Cc1ccccc1)C(=O)c1cc2cccnc2n(Cc2ccccc2)c1=O	16.4
O=S(=O)(Nc1ccccc1SCc1cccc(Cl)c1F)c1cccc2nonc12	137.6
CCOC(=O)/C(=N/O)c1csc(N)n1	25.1
O=C(NCCc1csc(-c2ccccc2)n1)[C@H]1CCCN1S(=O)(=O)c1ccc(F)c(Cl)c1	-23.9
CCOC(=O)C1CCCN(C(=O)CCc2nc(-c3ccccc3F)no2)C1 (stereo not given)	2.6
COc1ccc(-c2nnc(-c3nc(NCc4cccc(C)c4)c4ccccc4n3)o2)cc1	-47.8
COc1ccc(F)c(-c2nccn2CCCn2ccnc2)c1	4.9

Arranged by molecular weight (high to low): 5 of the compounds above
smiles	Tgondii IFNg
C[C@H](CO)N1C[C@H](C)[C@H](CN(C)C(=O)NC2CCCCC2)Oc2ncc(-c3cccc(F)c3)cc2C1=O	?
O=C(NCCc1csc(-c2ccccc2)n1)[C@H]1CCCN1S(=O)(=O)c1ccc(F)c(Cl)c1	-23.9
Cc1ccccc1-c1ccc2c(-c3ncc(C(=O)NCCN(C)C)s3)noc2c1	-53.8
CCC1CN(CCNC(=O)c2cccnc2OC)Cc2cc(OC)ccc2O1 (stereo not given)	7.3
O=C(c1cccc2c1OCC2)N1CCCC(CO)(Cc2ccccc2)C1 (stereo not given)	3.5

Only part of the results is shown; rates above refer to the full screens.
